# ugtP null kill – growth inhibition of ugtP-null S. aureus, primary screen, RN4220 ugtP deletion, OD600 | 16 h; some inactives read as strong as hits | growth inhibition, % (no concentration beside the values) | 330,000 tested, 0.54% active;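 active = z-score under -3 and OD600 up to 0.15 on both plates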;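 also: plate controls were untreated wells for no effect and antibiotic for full effect; wells of about 80 µL received 100 nL stock; the first replicate is given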
# Bead autofluor – flagged as autofluorescent in microsphere protease counterscreen. fluorescence intensity (concentration not given with the values). 360,000 tested, 3.1% active. compound autofluorescence counterscreen, microsphere flow cytometry; stronger effect = higher value;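 active = at least 3 SD above the mean of all compounds, about 16000 in these data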;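 also: 100 nL of 1 mM stock went into each well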
# BJeLR lethal – MLPCN primary cell-based screen for lethality selective to Ras in HRASV12 cells | BJeLR (HRASV12) viability, CellTiter-Glo ATP luminescence, 48 h; reference of the scale not given here | inhibition, % (concentration not given with the values) | 300,000 tested, 0.17% active | AID 1554, 2009;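 active = replicate mean above 50%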;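 also: 50 nL library stock added to about 25 µL; numbers are from one replicate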
# Mtb hypoxia rep – PubChem AID 1159583; fluorescence inhibition, % (no concentration beside the values); 300,000 tested, 0.1% active; M. tuberculosis hypoxia-regulated fluorescent reporter, fluorescence;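 active = 35 to 45% if threefold the growth effect, above 45% if 1.5-fold the growth effect; inactive = the rest, general growth blockers included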;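 also: wells of about 50 µL received 100 nL stock; 0% = vehicle wells and 100% = reference inhibitor wells; whole bacteria with a GFP reporter of the hypoxia response; strong numbers were not always called active; many hits fall short of the cut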
# Sa RN4220 lethal – growth inhibition of S. aureus RN4220, primary screen, OD600 | 16 h | inhibition, % (concentration not given with the values) | 330,000 tested, 0.33% active;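 active = z-score of -3 or lower and OD600 up to 0.18 on both plates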;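 also: plate controls were untreated cells for no effect and reference antibiotic for full effect; stock transfer was 100 nL into about 80 µL; one replicate is shown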
# PrP UTR inh – inhibition of PrP 5' UTR reporter expression | inhibition, % (no concentration beside the values) | 340,000 tested, 0.35% active | AID 488862, 2010 | cell-based PrP 5' UTR mRNA reporter, plate reader;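 active = every replicate at 50% or more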;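 also: 0 = median of the neutral control wells; tested in H4 reporter cells; numbers are from one replicate; inactives centre near -14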
# Mtb hypoxia rep growth – recorded beside Mtb hypoxia rep, whose call it bears; growth inhibition, %; measured here: M. tuberculosis growth (absorbance);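 0% = vehicle and 100% = reference antibiotic; read after six days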
# Active calls of the source: *; . = no result given. An unsorted share of the library; about 4% have a hit in one of these screens.
SMILES,ugtP null kill,Bead autofluor,BJeLR lethal,Mtb hypoxia rep,Mtb hypoxia rep growth,Sa RN4220 lethal,PrP UTR inh
CSCCC(NC(=O)c1ccco1)C(=O)OCC(=O)N1c2ccccc2NC(=O)C1(C)C (stereo not drawn),6,6681,.,5,6,4.0,.
Oc1c(C(c2cccs2)N2CCN(c3ccc(F)cc3)CC2)sc2ncnn12 (stereo not drawn),4,5736,2,1,4,9.0,-31
CSc1ccc(CCNS(=O)(=O)c2c(C)[nH]c(C)c2C(=O)N2CCCCC2)cc1,-1,6062,2,11,5,0.6,-6
COc1ccc2[nH]c3c(c2c1)CCN1C(=O)C(CC(=O)NCCC2=CCCCC2)C[C@H](C(=O)N2CCCCC2)[C@@]31C (stereo partly drawn),-7,2867,.,-6,-3,-1.9,-32
Cn1c(O)c(C=NCCCC(=O)O)c(=O)n(C)c1=O,3,9225,14,17,1,2.4,-16
Cc1cc(NC(=O)c2cccc(Cl)c2)n[nH]1,1,3421,-1,10,6,5.3,-67
O=C(NCc1ccco1)C1CCN(S(=O)(=O)Cc2ccccc2)CC1,4,8792,11,-6,6,4.4,-6
CCCCn1nnc(NC(=O)c2ccc(-c3cccc([N+](=O)[O-])c3)o2)n1,-4,.,-6,11,7,-1.7,.
Cc1cc(C)c(NC(=O)Cn2nnc(C(=O)NCc3cccs3)c2N)c(C)c1,1,8070,-2,5,1,5.3,-24
Cc1ccc(S(=O)(=O)Nc2ccc3c(c2)nc(CCN2CCOCC2)n3C)cc1,-2,4694,8,11,2,2.6,-11

# Record cards, as listed above.
# `Oc1c(C(c2cccs2)N2CCN(c3ccc(F)cc3)CC2)sc2ncnn12` (stereo not drawn) in the list: ugtP null kill = 4; Bead autofluor = 5736; BJeLR lethal = 2; Mtb hypoxia rep = 1; Mtb hypoxia rep growth = 4; Sa RN4220 lethal = 9.0; PrP UTR inh = -31
# `Cc1cc(C)c(NC(=O)Cn2nnc(C(=O)NCc3cccs3)c2N)c(C)c1` in the list: ugtP null kill = 1; Bead autofluor = 8070; BJeLR lethal = -2; Mtb hypoxia rep = 5; Mtb hypoxia rep growth = 1; Sa RN4220 lethal = 5.3; PrP UTR inh = -24
# `CSc1ccc(CCNS(=O)(=O)c2c(C)[nH]c(C)c2C(=O)N2CCCCC2)cc1` in the list: ugtP null kill = -1; Bead autofluor = 6062; BJeLR lethal = 2; Mtb hypoxia rep = 11; Mtb hypoxia rep growth = 5; Sa RN4220 lethal = 0.6; PrP UTR inh = -6

# Next section.
SMILES,ugtP null kill,Bead autofluor,BJeLR lethal,Mtb hypoxia rep,Mtb hypoxia rep growth,Sa RN4220 lethal,PrP UTR inh
CC(C)n1ncc2c(C(=O)NCCOc3ccccc3F)cc(C3CC3)nc21,-1,5928,.,2,11,-1.8,-63
O=C(c1ccc(CS(=O)Cc2ccc(Cl)cc2)o1)N1CCN(c2ccccc2)CC1 (stereo not drawn),94*,5860,-14,-3,6,-5.6,-8
Cc1ccc(S(=O)(=O)N2C[C@@H]3[C@H]4CC[C@H](C4)[C@@H]3[C@@H](C)[C@H]2c2ccn(Cc3ccccc3)c2)cc1,8,3911,.,4,-5,-0.1,-13
Cn1nc(OC(=O)Nc2ccc(F)cc2)cc1C(F)(F)F,-6,4815,1,-1,10,-4.3,-8
COc1ccc(CC(=O)NN=C(C)c2ccccn2)cc1,-1,.,.,-2,1,4.6,.
COc1cc(C=NNC(=O)CNC(=O)C2COc3ccccc3O2)ccc1O (stereo not drawn),10,.,.,-4,-7,3.0,.
CC1(C)CNc2cc(N)ccc2S1,-11,2068,0,20,25,5.4,-20
O=S(=O)(c1ccc(Br)cc1)N1CCn2c(nc3ccccc32)C1,-4,5189,11,3,0,3.6,-23
COc1ccc2c(OC)cc(-c3ccccc3)nc2c1,-8,5650,-2,.,.,13,4
COC(=O)CCC(=O)Nc1cccc([N+](=O)[O-])c1,2,4412,12,-2,-7,-3.2,-21
CC(C(=O)N1CCNCC1)n1cc(CCCN=C(N)N)nn1 (stereo not drawn),-2,.,.,4,4,3.8,.
CC(=O)OCc1c(C)cc(C)c(/C=C(/C#N)C(N)=O)c1C,2,3903,3,10,2,3.5,-27
COc1ccc(Cn2c(=O)[nH]c3cc(C(=O)NCCc4ccc(S(N)(=O)=O)cc4)ccc3c2=O)cc1,0,4760,-2,-2,-13,4.5,-36
CCOC(=O)c1c(C)[nH]c(C(=O)NCC(c2ccco2)N2CCCCC2)c1C (stereo not drawn),5,5444,.,4,13,4.0,-4
O=S(=O)(c1ccc2c(c1)CCCN2)N1CCCC1,-1,4075,.,10,2,6.7,-21
CS(=O)(=O)N(CC(=O)N1CCN(Cc2ccccc2)CC1)Cc1ccccc1,4,9461,-8,7,12,2.9,-3
Cc1ccc(NC(=O)CN(C)CC(=O)Nc2cccc(F)c2)cc1[N+](=O)[O-],5,3899,35,-6,6,-9.3,-27
Cc1ccc(CS/C(Nc2ccccc2C)=C(\C#N)C(=O)NCc2ccco2)c(C)c1,70,4333,5,3,7,2.2,-11
O=C(NC1(C(=O)O)CCCC1)C(Cl)Cl,3,3623,.,5,6,6.8,-9
COc1cccc(CN(C(=O)COc2ccc(Cl)cc2)C2CCS(=O)(=O)C2)c1 (stereo not drawn),-3,6179,4,-10,-6,-1.8,-3

# Rewritten with two lines to a compound: entries from further up.
# Each structure is followed by: ugtP null kill	Bead autofluor	BJeLR lethal	Mtb hypoxia rep	Mtb hypoxia rep growth	Sa RN4220 lethal	PrP UTR inh
> CC(C(=O)N1CCNCC1)n1cc(CCCN=C(N)N)nn1 (stereo not drawn)
  -2	.	.	4	4	3.8	.
> COc1ccc(CC(=O)NN=C(C)c2ccccn2)cc1
  -1	.	.	-2	1	4.6	.
> Cc1ccc(NC(=O)CN(C)CC(=O)Nc2cccc(F)c2)cc1[N+](=O)[O-]
  5	3899	35	-6	6	-9.3	-27
> Cc1cc(C)c(NC(=O)Cn2nnc(C(=O)NCc3cccs3)c2N)c(C)c1
  1	8070	-2	5	1	5.3	-24

# Given as tab-separated lines: entries from further up.
molecule	ugtP null kill	Bead autofluor	BJeLR lethal	Mtb hypoxia rep	Mtb hypoxia rep growth	Sa RN4220 lethal	PrP UTR inh
CC(C(=O)N1CCNCC1)n1cc(CCCN=C(N)N)nn1 (stereo not drawn)	-2	.	.	4	4	3.8	.
CC(=O)OCc1c(C)cc(C)c(/C=C(/C#N)C(N)=O)c1C	2	3903	3	10	2	3.5	-27
COc1ccc(Cn2c(=O)[nH]c3cc(C(=O)NCCc4ccc(S(N)(=O)=O)cc4)ccc3c2=O)cc1	0	4760	-2	-2	-13	4.5	-36
CCOC(=O)c1c(C)[nH]c(C(=O)NCC(c2ccco2)N2CCCCC2)c1C (stereo not drawn)	5	5444	.	4	13	4.0	-4
O=S(=O)(c1ccc2c(c1)CCCN2)N1CCCC1	-1	4075	.	10	2	6.7	-21

# Remaining list, next part
SMILES,ugtP null kill,Bead autofluor,BJeLR lethal,Mtb hypoxia rep,Mtb hypoxia rep growth,Sa RN4220 lethal,PrP UTR inh
NC(=O)C1(NC(=O)[C@@H]2CC3(CC(c4cccc(NC(=O)[C@@H]5CCC(=O)N5)c4)=NO3)CN2C(=O)c2cnccn2)CC1 (stereo partly drawn),.,3698,-1,.,.,.,-8
c1coc(CNc2c3c(nc4ncnn24)CCCC3)c1,2,4273,-5,.,.,-0.6,-23
CCOC(=O)C1(CCCc2ccccc2)CCN(C(=O)CCN2CCCCC2=O)CC1,10,4295,-2,4,12,7.0,-11
Cn1c(=O)c2[nH]c(N=Nc3ccc(N)cc3N)nc2n(C)c1=O,-3,4120,0,5,8,0.1,71*
CN(c1ccc(OCC(=O)OCC(=O)Nc2ccccc2)cc1)S(=O)(=O)c1ccc(F)cc1,5,2486,-13,6,8,4.9,-11
Cc1cc(-c2ccccc2)nc(NN=Cc2ccc(O)cc2O)n1,-10,.,.,0,0,4.3,.

# Screening results from PubChem BioAssay.
